# SARS PLpro yeast = blocks SARS-CoV papain-like protease in a yeast assay; hit rate 0.19% among 330,000; Potency, µM (top dose mostly 32.9 µM), for the others: at the highest dose activity, positive = growth rescue; AID 485353; S. cerevisiae expressing SARS-CoV PLpro, growth rescue; control for the full effect not named in the record; active means well fitted rising curve with a large enough effect; inconclusive means small, poorly fitted or top-dose-only effect; inactive means no such curve, though single readings can be large or run the other way; also: 0% is about no effect; nearly all actives have a fitted effect of over 55% in size; growth read by luminescence after 48 h
# Lassa entry inh = Lassa virus entry inhibition | Potency, µM (series often up to 37.9 µM), inactives show at the top dose activity change, negative = inhibition, usual class: inhibitors | AID 540256 | hit rate 1.2% among 300,000 | Lassa virus pseudotype entry inhibition, cell reporter; control for the full effect not named in the record; active means well fitted inhibition curve with a large enough effect; inconclusive means small, poorly fitted or top-dose-only effect, or effect the other way; inactive means flat fitted curve, though single readings scatter; tested in HEK293 cells; also: % is scaled to controls: 0 for no effect and ±100 for the full control effect; nearly all actives have a fitted effect of over 50% in size; luciferase read-out
# StopGo reporter = lowers the luciferase signal of an FMDV 2A StopGo reporter; AID 1159524; human cells with a luciferase reporter of 2A StopGo recoding; control for the full effect not named in the record; Potency, µM (top dose mostly 57.9 µM), for the others: top-dose signal change, negative = less light; hit rate 1.2% among 410,000; active = well fitted falling curve with a large enough effect; inconclusive = small, poorly fitted or top-dose-only effect; inactive = no such curve, though single readings can be large or run the other way; tested in HEK293T cells; also: % is scaled to controls: 0 for no effect and ±100 for the full control effect; nearly all actives have a fitted effect of over 45% in size; luciferase light after 4 h
# Marburg entry inh = Marburg virus entry inhibition; Potency, µM (top dose mostly 37.8 µM), for inactives: at the highest dose activity change, negative = inhibition, usual class: inhibitors; Marburg virus pseudotyped entry inhibition, cell reporter; control for the full effect not named in the record; about a third of the inactives were read at about 46 µM; hit rate 1.8% among 300,000; active = well fitted inhibition curve with a large enough effect; inconclusive = small, poorly fitted or top-dose-only effect, or effect the other way; inactive = flat fitted curve, though single readings scatter; tested in HEK293 cells; about a fifth of its hits are not listed in these tables; also: % is scaled to controls: 0 for no effect and ±100 for the full control effect; luciferase read-out
# NS1 function inh = inhibitors of influenza NS1 protein function; S. cerevisiae slowed by influenza A NS1, growth recovery by OD600; hit rate 0.4% among 270,000; AID 2326; Potency, µM (titrated, usually from 46.1 µM), for inactives: at the highest dose activity, positive = more growth; active means well fitted rising curve with a large enough effect; inconclusive means small, poorly fitted or top-dose-only effect; inactive means no such curve, though single readings can be large or run the other way; also: nearly all actives have a fitted effect of over 50% in size
#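 S. cerevisiae expressing influenza A NS1, grown in glucose, washed, then diluted 1:100 into pH 6.0 -URA galactose medium with 23 nl compound. Growth recovery read as OD600; NS1-free strain serves as control.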
# Cruzain Triton = inhibitors of Trypanosoma cruzi cruzain with detergent; P25779; purified cruzain, Z-FR-AMC fluorescence, 0.01% Triton; Potency, µM, for the others: max response, negative = inhibition, hits mostly inhibitors; hit rate 0.43% among 200,000; AID 1478;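 also: plate controls were neutral wells for no effect and buffer without enzyme for full effect; nearly all actives have a fitted effect of over 40% in size; top concentration of the series not given in the record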
# Target sequence (P25779 123-467 limits assumed): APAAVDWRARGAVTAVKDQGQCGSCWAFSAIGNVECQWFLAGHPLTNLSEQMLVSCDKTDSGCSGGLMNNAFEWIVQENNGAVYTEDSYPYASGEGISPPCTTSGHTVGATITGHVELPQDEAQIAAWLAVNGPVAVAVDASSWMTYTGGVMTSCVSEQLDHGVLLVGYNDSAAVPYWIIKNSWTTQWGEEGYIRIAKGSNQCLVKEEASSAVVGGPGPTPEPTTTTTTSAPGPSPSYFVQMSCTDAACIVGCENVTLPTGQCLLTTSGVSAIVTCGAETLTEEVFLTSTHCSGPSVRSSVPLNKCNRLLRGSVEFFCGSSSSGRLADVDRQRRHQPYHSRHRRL
#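 Cysteine protease activity tested under reducing, mildly acidic conditions (100 mM sodium acetate pH 5.5, 5 mM DTT) plus 0.01% Triton X-100. Cruzain 1.5 nM; substrate Z-FR-AMC 2 uM; 15 min compound preincubation at room temperature.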
# RE007 growth inh = less growth of the S. pombe RE007 Vpr strain; S. pombe RE007 Vpr strain, BacTiter-Glo ATP luminescence, 24 h; control for the full effect not named in the record; Potency, µM (doses to about 92.2 µM), inactives show at the top dose activity change, negative = less growth; hit rate 0.21% among 360,000; active = well fitted falling curve with a large enough effect; inconclusive = small, poorly fitted or top-dose-only effect; inactive = no such curve, though single readings can be large or run the other way;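 also: % is scaled to controls: 0 for no effect and ±100 for the full control effect; nearly all actives have a fitted effect of over 50% in size; the assay follows cell death caused by Vpr and the record does not say whether a fall means rescue or toxicity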
#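 Fission yeast strain RE007, carrying one chromosomally integrated HIV-1 vpr copy, was seeded at OD 0.01 in PMG+AL medium with 23 nL pinned compound. After 24 h at 30 °C and 99% humidity, viability was read by BacTiter-Glo luminescence.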
# Cruzain noTriton = inhibitors of Trypanosoma cruzi cruzain without detergent. P25779. purified cruzain, Z-FR-AMC fluorescence, no detergent. Potency, µM, for the others: max response, negative = inhibition, hits mostly inhibitors. hit rate 2.3% among 200,000. AID 1476;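 also: plate controls were enzyme without inhibitor for no effect and buffer without enzyme for full effect; nearly all actives have a fitted effect of over 40% in size; top concentration of the series not given in the record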
#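 Purified cruzain at 1.5 nM, pre-incubated 15 min with compound at room temperature in 100 mM sodium acetate pH 5.5, 5 mM DTT, 0.00005% Triton X-100. Reaction started with 2 uM Z-FR-AMC; AMC fluorescence increase over 60 s gives rate.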
# Numbers without * were called inactive; ? = inconclusive; / = no result given; [ ] = another dose, or the depositor's remark. Unless noted, calls follow the shape of the dose curve; as a rule, active = well fitted curve in the direction sought with a large enough effect; inconclusive = small, poorly fitted or top-dose-only effect, or another doubt; inactive = no such curve, though single readings can be large; an effect the other way counts as inactive or inconclusive. Potency is read from the fitted curve at half-maximal effect.
SMILES,SARS PLpro yeast,Lassa entry inh,StopGo reporter,Marburg entry inh,NS1 function inh,Cruzain Triton,RE007 growth inh,Cruzain noTriton
COC(=O)c1sccc1S(=O)(=O)N(CC(=O)Nc1cc(F)ccc1F)c1ccc(C)c(C)c1,/,-42%[46.1 µM],0%,/,/,-5.4%,/,?
COc1cc2c(cc1OC)C1(Nc3c-2c(Cc2ccccc2)nn3-c2ccccc2)C(=O)Nc2ccccc21 (centres undefined),14%,?,?,?,?,-3.9%,1%,?
CCCCN(CCO)c1ncnc2sc(-c3ccccc3)cc12,-4%,/,-19%,/,0%,/,2%,/
CCOc1ccc(C2c3[nH]c4ccccc4c3C[C@H]3C(=O)N(C4CCN(Cc5ccccc5)CC4)CC(=O)N23)cc1OC (some centres undefined),1%,/,-23%,/,10%,/,-12%,/
CCOC(=O)c1cc(-c2ccc(F)cc2)n(CCC(=O)NC2CCN(Cc3ccccc3)CC2)c1C,2%,?,-8%,?,/,/,-7%,/
COCC1CCCCN1C(=O)c1cccc(OC2CCN(C(=O)C3CC3)CC2)c1 (centres undefined),4%,21%,31%[activator],1%,24%,/,11%,/
COc1ccc2oc(=O)cc(CN3CCN(C(=O)c4ccccc4)CC3)c2c1,/,-1%[46.1 µM],-27%,10%[46.1 µM],/,-3.3%,/,-5%
CC(CN1CCOCC1)OC(=O)CCc1ccccc1 (centres undefined),7%,11%[46.1 µM],3%,-10%[46.1 µM],7%,/,14%,/
CCc1c(C)nc(SCC(=O)NNC(=O)Cc2ccc(OC)cc2)[nH]c1=O,3%,/,8%,/,0%,/,1%,/
O=C(c1cc2c(ccc3ccccc32)oc1=O)N1CCCC1,-22%,6%,24%,14%,5%,-27%,-22%,?
Cc1c(C)c2ccc(OC(C)C(=O)NCCc3c[nH]c4ccccc34)cc2oc1=O (centres undefined),-2%,/,-11%,/,1%,/,0%,/
O=C(NCc1ccc2c(c1)OCO2)c1cccc(F)c1,9%,3%,3%,9%,-14%,-1.2%,-9%,2%
O=C(Cn1c(SCC(=O)N2CCCc3ccccc32)nc2ccccc21)N1CCCC1,6%,?,-11%,1%,-6%,0.0%,-6%,-2%
COc1ccc2c(c1)C=C(C(=O)OCc1cccnc1)CO2,2%,?,6%,5%[46.1 µM],/,/,-11%,/
Cc1cc2oc(C(=O)N(Cc3ccccc3F)C3CCS(=O)(=O)C3)c(C)c2cc1Cl (centres undefined),/,?,?,?,/,-7.3%,/,5%
CC(=O)Nc1ccc(OS(=O)(=O)c2ccc(Cl)cc2)cc1,0%,0%,20%,-2%[46.1 µM],-17%,/,8%,/
Cc1cccnc1Nc1nc(-c2ccc(O)c(O)c2)cs1,-15%,/,0%,4%,?,-17%,4%,-3%
O=C(CCc1ccccc1)NNC(=O)COc1ccc(Cl)cc1,-1%,-1%,-2%,-7%,8%,/,-21%,/
O=C(NN=Cc1ccccc1O)c1cccc([N+](=O)[O-])c1,/,?,20%,10µM*,/,/,2%,/
C=CCn1c2ccccc2c2nnc(SCC(=O)O)nc21,-6%,14%,-12%,-7%,3%,/,5%,/
CS(=O)(=O)Nc1ccc(C(=O)Nc2ccc3c(c2)OCCO3)cc1,6%,?,48%[activator],?,7%,-2.3%,-2%,4%
CN(C)CC(C)(C)CN=Cc1c(O)[nH]c2ccccc12,0%,/,-9%,/,5%,/,11%,/
C=CCn1cc(C(=O)OCC)c(=O)c2ccc(F)cc21,0%,4%[46.1 µM],-6%,13%[46.1 µM],1%,/,5%,/
CSCCC(NS(=O)(=O)c1ccc(Cl)cc1)C(=O)OCC(=O)N(C(C)C)C(C)C (centres undefined),11%,?,14%,-35%,-49%,0.6%,-3%,23%

# Exported with each value named: two of the compounds above.
CN(C)CC(C)(C)CN=Cc1c(O)[nH]c2ccccc12
  SARS PLpro yeast: 0%
  Lassa entry inh: /
  StopGo reporter: -9%
  Marburg entry inh: /
  NS1 function inh: 5%
  Cruzain Triton: /
  RE007 growth inh: 11%
  Cruzain noTriton: /

CC(=O)Nc1ccc(OS(=O)(=O)c2ccc(Cl)cc2)cc1
  SARS PLpro yeast: 0%
  Lassa entry inh: 0%
  StopGo reporter: 20%
  Marburg entry inh: -2%[46.1 µM]
  NS1 function inh: -17%
  Cruzain Triton: /
  RE007 growth inh: 8%
  Cruzain noTriton: /

# Additional compounds follow.
SMILES,SARS PLpro yeast,Lassa entry inh,StopGo reporter,Marburg entry inh,NS1 function inh,Cruzain Triton,RE007 growth inh,Cruzain noTriton
COc1ccc(OC)c2sc(N3CCN(C(=O)C4COc5ccccc5O4)CC3)nc12 (centres undefined),/,-11%[46.1 µM],-24%,/,/,0.3%,/,-1%
c1ccc(-c2ccc(-c3nc(-c4ccncc4)no3)cc2)cc1,10%,?,/,?,0%,5.2%,13%,?
Cc1cn2c(=O)cc(COc3cccc(NC(=O)c4cccc(F)c4)c3)nc2s1,/,-3%[46.1 µM],-8%,4%[46.1 µM],/,-0.6%,/,-12%
CC(=O)NC(c1ccccc1)c1c(O)ccc2ccccc12 (centres undefined),-1%,1%,4%,?,5%,/,5%,/
CC1CCN(C(=O)C2CCN(S(=O)(=O)c3cccnc3)CC2)CC1,-3%,16%,/,18%,-2%,1.9%,-2%,5%
CCOc1ccc(N(CC)S(=O)(=O)N2CCCC(C(=O)Nc3ccc(OC)c(OC)c3)C2)cc1 (centres undefined),/,-29%[46.1 µM],?,/,/,1.8%,/,?
CCc1c(C)sc(NC(=O)c2cccs2)c1C(=O)OC(C)C,1%,?,/,9.2µM*,-50%,-3.0%,-2%,-23%
CCN(CC)CCCNC(=O)c1sc2nc3n(c(=O)c2c1C)CCCCC3,/,1%[46.1 µM],-17%,/,/,-5.1%,/,16%
Cn1cnc([N+](=O)[O-])c1Nc1ccc(O)cc1,13%,8%,-7%,0%,-3%,-4.9%,4%,1%
CCN1C(=O)C(O)(c2c(C)[nH]c3ccccc23)c2ccccc21 (centres undefined),/,19%[46.1 µM],-12%,?,/,-2.5%,/,9%
C=CCNc1nc2c(c(=O)n(C)c(=O)n2C)n1CC(=C)C,0%,/,-23%,/,-4%,/,-5%,/
CN(C)c1ccc(C(CNC(=O)c2ccc(C#N)cc2)c2c[nH]c3ccccc23)cc1 (centres undefined),10%,?,0%,?,28%,-11%,-4%,?
C[C@]12C[C@@H](O)[C@H](O)CC1=CCC1C2CC[C@]2(C)C(=O)CCC12 (some centres undefined),0%,22%,0%,1%,/,/,-2%,/
O=C(NC1CCCC1)C(c1ccccn1)N(C(=O)c1csnn1)c1ccccc1Cl (centres undefined),-4%,2%,14%,-2%[46.1 µM],4%,/,1%,/
CC(=O)N(C1=C(N)C(=O)c2ccccc2C1=O)C(C)C,-2%,5%[46.1 µM],18%,-20%[46.1 µM],/,/,-25%,/
Cc1nn(CCCC(=O)NCc2ccccc2)c(=O)c2nccn12,3%,/,-1%,/,10%,/,2%,/
CC(Oc1ccc(F)cc1)C(=O)NN (centres undefined),-8%,9%,-18%,?,-3%,-1.2%,-6%,19%
Cc1cc(NS(=O)(=O)c2ccc(NC(=O)C3CCCCC3)cc2)no1,3%,/,-23%,/,-17%,/,11%,/
CC1(CCOCc2ccccc2)NC(=O)NC1=O (centres undefined),/,6%[46.1 µM],-1%,1%[46.1 µM],/,/,-3%,/
O=C(CN1CCCC1)N/N=C/c1ccc(-c2cccc(Cl)c2)o1,0%,0%,-1%,-2%,-8%,-12%,1%,-10%
O=C1CN(C(=O)COc2ccccc2F)c2ccccc2N1,8%,4%,-17%,15%,13%,-1.8%,/,12%
COC(=O)c1ccc(CSc2nc3c([nH]c4ccccc43)c(=O)n2-c2cccc(OC)c2)o1,/,-17%[46.1 µM],0%,/,/,-3.2%,/,25µM*
O=C(Nc1ccccc1C(=O)O)c1ccc(NC(=O)C2CCCCC2)cc1,-1%,-1%,51%[activator],-6%,2%,/,2%,/
COC(=O)c1sccc1S(=O)(=O)N(CC(=O)NCc1ccc(C)cc1)c1ccc(C)c(C)c1,/,-21%[46.1 µM],3%,/,/,-2.3%,/,8%

# Some of these compounds in order of heavy-atom count, high to low:
SMILES,SARS PLpro yeast,Lassa entry inh,StopGo reporter,Marburg entry inh,NS1 function inh,Cruzain Triton,RE007 growth inh,Cruzain noTriton
COC(=O)c1sccc1S(=O)(=O)N(CC(=O)NCc1ccc(C)cc1)c1ccc(C)c(C)c1,/,-21%[46.1 µM],3%,/,/,-2.3%,/,8%
CN(C)c1ccc(C(CNC(=O)c2ccc(C#N)cc2)c2c[nH]c3ccccc23)cc1 (centres undefined),10%,?,0%,?,28%,-11%,-4%,?
O=C(NC1CCCC1)C(c1ccccn1)N(C(=O)c1csnn1)c1ccccc1Cl (centres undefined),-4%,2%,14%,-2%[46.1 µM],4%,/,1%,/
O=C(Nc1ccccc1C(=O)O)c1ccc(NC(=O)C2CCCCC2)cc1,-1%,-1%,51%[activator],-6%,2%,/,2%,/
Cc1cc(NS(=O)(=O)c2ccc(NC(=O)C3CCCCC3)cc2)no1,3%,/,-23%,/,-17%,/,11%,/
Cc1nn(CCCC(=O)NCc2ccccc2)c(=O)c2nccn12,3%,/,-1%,/,10%,/,2%,/
O=C(CN1CCCC1)N/N=C/c1ccc(-c2cccc(Cl)c2)o1,0%,0%,-1%,-2%,-8%,-12%,1%,-10%
O=C1CN(C(=O)COc2ccccc2F)c2ccccc2N1,8%,4%,-17%,15%,13%,-1.8%,/,12%
C=CCNc1nc2c(c(=O)n(C)c(=O)n2C)n1CC(=C)C,0%,/,-23%,/,-4%,/,-5%,/
CC(=O)N(C1=C(N)C(=O)c2ccccc2C1=O)C(C)C,-2%,5%[46.1 µM],18%,-20%[46.1 µM],/,/,-25%,/
CC1(CCOCc2ccccc2)NC(=O)NC1=O (centres undefined),/,6%[46.1 µM],-1%,1%[46.1 µM],/,/,-3%,/
Cn1cnc([N+](=O)[O-])c1Nc1ccc(O)cc1,13%,8%,-7%,0%,-3%,-4.9%,4%,1%
CC(Oc1ccc(F)cc1)C(=O)NN (centres undefined),-8%,9%,-18%,?,-3%,-1.2%,-6%,19%

# Compound activity (PubChem BioAssay)

# Outcome played no part in choosing rows; about 4.7% have a hit in one of these screens.
